# Screens from PubChem.
# BJeLR viability: BJeLR cell viability loss; BJeLR (HRASV12) viability, CellTiter-Glo ATP luminescence, 48 h; reference of the scale not given here; inhibition, % (no concentration beside the values); 0.17% of 300,000 active;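 active means replicate mean above 50%; inconclusive means above 50% but judged a plate artefact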;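 further: 50 nL library stock added to about 25 µL; numbers are from one replicate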
# Bead autofluor: counter-screen for toxin protease inhibitors: compound fluorescence | fluorescence intensity (no concentration beside the values) | AID 624483 | 3.1% of 360,000 active | compound autofluorescence counterscreen, microsphere flow cytometry; hits give high values;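 active means at least 3 SD above the mean of all compounds, about 16000 in these data; inconclusive means too few beads counted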;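 further: 100 nL of 1 mM stock went into each well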
# Mtb hypoxia inh: inhibitors of hypoxia-regulated fluorescent reporter in Mycobacterium tuberculosis; M. tuberculosis hypoxia-regulated fluorescent reporter, fluorescence; 0.1% of 300,000 active; fluorescence inhibition, % (test concentration not listed);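 active means 35 to 45% if threefold the growth effect, above 45% if 1.5-fold the growth effect; inactive means the rest, general growth blockers included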;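 further: wells of about 50 µL received 100 nL stock; 0% = vehicle wells and 100% = reference inhibitor wells; whole bacteria with a GFP reporter of the hypoxia response; strong numbers were not always called active; many hits fall short of the cut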
# Sa ugtP lethal: growth inhibition of S. aureus ugtP deletion strain; S. aureus RN4220 ugtP deletion, OD600 growth, 16 h; some inactives read as strong as hits; growth inhibition, % (test concentration not listed); 0.54% of 330,000 active;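 active means z-score under -3 and OD600 up to 0.15 on both plates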;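 further: plate controls were untreated wells for no effect and antibiotic for full effect; wells of about 80 µL received 100 nL stock; the first replicate is given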
# Sa RN4220 lethal: S. aureus RN4220 growth inhibition; 0.33% of 330,000 active; inhibition, % (concentration not given with the values); OD600, 16 h;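 active means z-score of -3 or lower and OD600 up to 0.18 on both plates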;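 further: plate controls were untreated cells for no effect and reference antibiotic for full effect; stock transfer was 100 nL into about 80 µL; one replicate is shown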
# PrP 5UTR inh: suppresses PrP 5' UTR mRNA reporter expression. 0.35% of 340,000 active. cell-based PrP 5' UTR mRNA reporter, plate reader. inhibition, % (no concentration beside the values);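 active means every replicate at 50% or more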;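 further: 0 = median of the neutral control wells; tested in H4 reporter cells; numbers are from one replicate; inactives centre near -14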
# Mtb hypoxia inh growth: also measured in Mtb hypoxia inh; calls as there; growth inhibition, %; measured here: M. tuberculosis growth (absorbance);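 0% = vehicle and 100% = reference antibiotic; read after six days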
# Active calls of the source: *; ? = inconclusive; · = no result given.
# The opening 6 compounds (preview)
SMILES,BJeLR viability,Bead autofluor,Mtb hypoxia inh,Mtb hypoxia inh growth,Sa ugtP lethal,Sa RN4220 lethal,PrP 5UTR inh
N#Cc1cc(S(=O)(=O)c2ccccc2)c(N)[nH]c1=O,1.3,9930,4.0,-2.7,2.2,0.5,-10.6
CCOC(=O)C1=C(COC(=O)/C=C/c2cccc(OC)c2OC)NC(=O)NC1C (configuration not stated),-9.0,6311,3.8,7.9,2.5,1.8,2.2
N#Cc1ccc(CC(C(=O)O)N2Cc3ccccc3C2=O)cc1 (configuration not stated),-6.8,3033,10.6,-3.3,6.2,5.3,-7.4
Cc1cc(Cl)c2oc(C(=O)NC(C)c3ccncn3)c(C)c2c1 (configuration not stated),-1.6,5560,5.5,-0.4,10.2,3.7,-7.8
CCCCNC(=O)CC(NS(=O)(=O)c1ccc(C)cc1)c1ccco1 (configuration not stated),-3.9,11248,15.1,2.2,-1.9,4.7,-5.2
CCn1c(NCc2ccc(N(C)C)cc2)nc2ccccc21,-0.9,3451,12.1,-3.4,13.2,-3.0,-16.2

# The listing, from the first entry:
SMILES,BJeLR viability,Bead autofluor,Mtb hypoxia inh,Mtb hypoxia inh growth,Sa ugtP lethal,Sa RN4220 lethal,PrP 5UTR inh
N#Cc1cc(S(=O)(=O)c2ccccc2)c(N)[nH]c1=O,1.3,9930,4.0,-2.7,2.2,0.5,-10.6
CCOC(=O)C1=C(COC(=O)/C=C/c2cccc(OC)c2OC)NC(=O)NC1C (configuration not stated),-9.0,6311,3.8,7.9,2.5,1.8,2.2
N#Cc1ccc(CC(C(=O)O)N2Cc3ccccc3C2=O)cc1 (configuration not stated),-6.8,3033,10.6,-3.3,6.2,5.3,-7.4
Cc1cc(Cl)c2oc(C(=O)NC(C)c3ccncn3)c(C)c2c1 (configuration not stated),-1.6,5560,5.5,-0.4,10.2,3.7,-7.8
CCCCNC(=O)CC(NS(=O)(=O)c1ccc(C)cc1)c1ccco1 (configuration not stated),-3.9,11248,15.1,2.2,-1.9,4.7,-5.2
CCn1c(NCc2ccc(N(C)C)cc2)nc2ccccc21,-0.9,3451,12.1,-3.4,13.2,-3.0,-16.2
CC(CC(=O)Nc1ccccn1)=NNC(=O)c1ccc2ccccc2c1,·,·,10.2,0.6,-12.6,-0.4,·
Cc1ccccc1/C(N)=N/OC(=O)N1c2ccccc2Sc2ccccc21,0.6,23999*,0.9,-0.8,-17.7,4.3,-2.2
CCOC(=O)C1=C(C)N(c2ccc(C)cc2)C(=O)/C1=C\c1cccs1,0.9,16417*,4.7,5.3,6.6,2.2,-15.0
CCOc1c(Cl)cc(C(=O)NCCN2CCCCC2)cc1Cl,3.7,22799*,1.5,7.7,3.2,3.0,-9.6
O=C(CCCSc1nc2ccccc2[nH]1)NCc1ccccc1F,-0.1,4162,-6.7,-2.5,1.5,2.9,-20.6
COc1ccc2c(C)cc(=O)oc2c1C,3.7,3156,·,·,2.4,1.9,-23.9
CCN(CC(=O)NC(=O)NC1CCCC1)Cc1ccccc1,4.4,6081,12.1,4.4,3.0,5.9,-19.3
CCOc1ccccc1C(=O)Nc1cccc(-c2ccc3nncn3n2)c1,-2.0,3501,4.7,7.8,5.6,3.5,6.6
O=C(Nc1ccc(C(=O)N2CCOCC2)cc1)c1cnn2c(C(F)F)cc(-c3ccccc3)nc12,-1.2,3901,0.2,2.2,-4.7,2.1,-3.3
N#CC1=C(N)N(c2ccc(F)cc2)C(=O)C1,-4.6,5945,10.3,11.2,8.6,3.5,-28.3
CCN=C(NS(=O)(=O)c1ccc(Br)cc1)c1ccc(Cl)cc1,·,4089,9.5,-3.9,1.4,6.9,-19.3
Cc1cc(=O)oc2c(C)c(OC(C)C(=O)NC3CCN(Cc4ccccc4)CC3)ccc12 (configuration not stated),-3.4,4638,1.6,5.7,5.5,3.6,1.2
C/C(=N/N=C/c1ccc(N(C)C)cc1)c1ccccc1,31.0,2556,·,·,·,·,-13.9
COc1ccc(C=Nn2c(C)nc3ccccc3c2=O)cc1OC,·,·,11.3,-7.8,12.3,-0.6,·
O=C(Cn1cccc1C(=O)c1ccccc1)NCc1cccnc1,-3.7,2988,1.6,4.4,6.5,0.2,-10.5
Cc1c(NC(=O)Cc2ccccc2)cccc1C(=O)NN1C(=O)c2ccccc2C1=O,13.1,2075,14.6,5.2,-0.9,-0.1,-1.7
Cc1cc(NS(=O)(=O)c2ccc(Cl)cc2)nn1CC(=O)NCc1ccco1,-2.2,5350,·,·,-3.4,-1.0,-19.4
CN(CC(=O)OCC(=O)NCc1ccccc1)S(=O)(=O)c1ccc(F)cc1,·,?,0.5,-11.4,3.5,2.2,-0.7
COc1ccc(NC(=O)C2C3CCC(O3)C2C(=O)O)c(OC)c1 (configuration not stated),-3.7,3957,·,·,·,·,-21.5

# Other structures.
SMILES,BJeLR viability,Bead autofluor,Mtb hypoxia inh,Mtb hypoxia inh growth,Sa ugtP lethal,Sa RN4220 lethal,PrP 5UTR inh
CN(C)C1(CNC(=O)Nc2ccccc2)CCCCC1,4.7,3527,0.4,7.6,-2.6,-4.6,-31.1
CCOCCc1nnc(NC(=O)c2cc(OC)c(OC)c(OC)c2)s1,2.5,3242,9.1,-0.9,-2.6,-8.9,-2.9
COC(=O)C1=C(c2ccc(-c3ccccc3)c(F)c2)CC2CCC1N2C(=O)NCc1ccco1 (configuration not stated),·,·,-0.8,9.9,-19.9,6.7,·
O=C(Cc1ccccc1)Nc1cccc(C(=O)O)c1O,1.6,3472,7.8,13.9,2.2,2.5,-13.7
CCc1c(C)nn(C(=O)/C(C#N)=C\N(C)C)c1C,-10.4,3582,-4.2,-4.4,2.9,5.4,-87.0
O=C(C1CCN(c2ncnc3c2nc2n3CCCCC2)CC1)N1CCCCC1,-0.7,3857,5.2,15.8,2.4,-0.8,-20.6
Cc1nc(C)c(C(=O)N2CCCC(C(=O)c3ccc4ccccc4c3)C2)s1 (configuration not stated),-1.6,4282,2.2,0.5,6.4,3.4,-3.1
CN1C2=C(C(=O)CC(C)(C)C2)C(c2cccs2)C2=C1CC(C)(C)CC2=O,-1.6,4462,9.2,5.0,-2.5,2.3,-30.2
CC(=O)NCC(=O)N(C)C(C(=O)Nc1ccc2c(c1)OCCO2)c1ccccc1 (configuration not stated),-9.1,3479,3.7,8.4,4.5,5.9,-23.5
CN1CCCN(C(=O)/C=C/c2ccc(F)cc2)CC1,-15.1,2357,14.3,7.0,12.8,8.4,-21.4
O=C(CNS(=O)(=O)c1ccc([N+](=O)[O-])cc1)N/N=C\c1ccc(O)cc1,-6.9,3393,·,·,·,·,2.2
O=C(c1ccc([N+](=O)[O-])cc1)N1CCN(c2ncc(Br)cn2)CC1,-5.3,3731,16.7,8.6,0.8,1.1,-9.3
COc1cc(C2Nc3cc(Cl)c(S(N)(=O)=O)cc3S(=O)(=O)N2)cc(OC)c1OC (configuration not stated),16.4,3286,5.0,1.9,-4.5,2.2,-12.0
CC1(C)NC(=O)N(CCCCOc2ccc(Cl)cc2)C1=O,-5.7,23237*,-5.0,2.3,-1.2,0.1,-14.5
O=C(NCCNS(=O)(=O)c1ccccc1Cl)c1cc(OCC(F)(F)F)ccc1OCC(F)(F)F,4.6,6622,1.9,4.4,-4.7,-0.4,-5.7
N#Cc1ccc(-c2csc(NNC(=O)c3ccccc3)n2)cc1,-6.1,2845,·,·,6.0,-1.9,-36.1
Cc1ccc(S(=O)(=O)n2ccc3c(OCCOCCNCc4ccc(F)cc4)cccc32)cc1,5.1,3574,13.0,14.2,3.2,3.2,-3.6
O=Cc1ccc2c(c1)CCN2Cc1ccccc1,0.6,3047,1.7,3.2,-0.8,5.2,-6.9
CCN1CCN(c2cc(SC(C)C)nc(-c3ccc(OC)cc3)n2)CC1,-3.2,2677,14.1,15.5,92.9*,-3.4,-2.2
O=C(O)CCC(CNS(=O)(=O)c1ccccc1)C(F)(F)F (configuration not stated),-12.2,4431,6.0,12.9,10.8,0.2,-15.2
CCCCSc1nc(NCc2ccco2)c2c3c(sc2n1)COC(C)(C)C3,-2.5,16223*,8.6,8.1,52.6,-1.9,-7.2
CC(=O)c1ccc(OCC(O)CN2CCN(CCN3C(=O)c4cccc5cccc(c45)C3=O)CC2)cc1 (configuration not stated),-13.2,2617,·,·,·,·,-21.3
NC(=O)CSc1nnc(COc2ccccc2)n1Cc1ccco1,-0.3,4307,14.2,7.7,-0.5,2.4,7.6
CSCCC(NC(=O)c1cccc([N+](=O)[O-])c1)C(=O)O (configuration not stated),-12.0,2596,-9.9,7.1,0.5,-1.1,-27.4
COc1ccc2nc(NC(=O)CS(=O)(=O)Cc3ccccc3)sc2c1,-5.7,3518,13.0,8.1,6.9,6.6,1.0

# Continued.
SMILES,BJeLR viability,Bead autofluor,Mtb hypoxia inh,Mtb hypoxia inh growth,Sa ugtP lethal,Sa RN4220 lethal,PrP 5UTR inh
Cc1cccc(-n2ncc3c(N4CCC5(CC4)OCCO5)ncnc32)c1,10.3,4394,11.4,8.9,-7.2,2.1,-102.8
Clc1ccc(C2CSc3c4ncnc-4ncn32)cc1 (configuration not stated),7.8,3320,2.2,16.4,-0.4,0.8,1.0
COC(=O)c1ccc(-c2ccc(C(=O)N3CCCN(C)CC3)cc2)cc1,4.5,·,-2.9,0.0,0.5,-15.1,·
CC(=O)Nc1ccc(SCC(=O)N(C)C2CCS(=O)(=O)C2)cc1 (configuration not stated),-5.5,3364,6.0,-6.8,4.5,0.3,-0.7
O=C(Nc1ccc(N2CCOCC2)c(S(=O)(=O)Nc2ccccc2Cl)c1)c1ccc(F)cc1,·,2873,7.5,4.7,-15.0,-1.7,-14.2
COC(=O)c1cccc(S(=O)(=O)N(Cc2ccco2)Cc2cc3cc(OC)c(OC)cc3[nH]c2=O)c1,-0.3,10265,-1.3,7.3,10.9,4.0,-15.8
CNCCc1ccccc1,-6.0,·,·,·,3.0,0.7,·
CCCCC1(C)OC(=O)C(=Cc2c[nH]c3ccccc23)C(=O)O1 (configuration not stated),-1.6,2681,8.8,4.6,2.8,2.4,-3.7
CCOC(=O)c1ccc(N2C(=O)CC(N3CCC(C#N)(c4ccccc4)CC3)C2=O)cc1 (configuration not stated),8.2,4553,·,·,1.5,-1.0,-10.6
O=C(c1ccccc1)c1cc2ccc(O)cc2oc1=O,0.8,20651*,1.6,3.9,4.1,6.3,-13.7
C[N+]12CCC(CC1)C(OC(=O)C(O)(c1ccccc1)c1ccccc1)C2 (configuration not stated),-9.6,5854,0.7,-7.6,-0.9,5.6,3.1
NS(=O)(=O)c1ccc(CCNC(=O)CCNS(=O)(=O)c2ccccc2C(F)(F)F)cc1,·,3822,5.4,2.5,6.4,8.0,-15.9
CC(C)(C)NC(=O)C(c1ccc(-c2ccccc2)cc1)N(C[C@H]1CC[C@@H]([C@@H]2CC[C@H](CO)O2)O1)C(=O)c1ccc2ccccc2c1 (some centres not stated),·,3810,-4.0,4.7,-12.6,51.5,-8.1
O=C(N/N=C/c1ccoc1)c1ccccc1,-2.4,5461,·,·,·,·,-21.0
O=C(CSc1nnc(-c2cccnc2)n1Cc1ccccc1)NCc1ccco1,-1.6,10611,13.9,2.2,1.2,7.5,-22.5
CC(=O)Nc1ccc(S(=O)(=O)N(C)CC(=O)OCC(=O)N2CCCCC2)cc1,-1.1,?,7.4,0.5,2.8,2.3,-19.1
ON=C(c1ccccc1)c1nccc2ccccc12,·,·,2.3,-0.4,-1.8,1.7,·
CCOc1cccc(C(=O)NNC(=O)C2C3C=CC(C3)C2C(=O)O)c1 (configuration not stated),-0.6,4213,-6.4,-2.4,14.4,7.0,-17.3
Cc1cc(C)cc(N2C(N)=NC(N)=NC2c2cccc(Cl)c2)c1 (configuration not stated),14.1,3680,0.4,-2.0,-9.3,2.2,-10.1
Cc1cc(C)c2sc(NNC(=O)c3ccc(S(=O)(=O)N4CCc5ccccc5C4)cc3)nc2c1,11.3,4248,2.1,-0.4,28.0,25.2,23.0
C=C(C)CN1C(=O)C(O)(CC(=O)c2ccc3c(c2)OCCO3)c2ccccc21 (configuration not stated),6.7,3347,4.0,7.8,0.0,8.0,-8.5
Cc1ccc(Cn2nc(C)c(NC(=O)c3cc(C)no3)c2C)cc1,1.8,5683,12.0,7.1,6.4,4.6,-4.3
CC(C)CCN(C(=O)c1ccc(Br)cc1)c1c(N)n(Cc2ccccc2)c(=O)[nH]c1=O,·,5822,11.4,4.4,-0.7,3.6,·
COc1cccc(OCC(O)CN2CCN(c3ncccn3)CC2)c1 (configuration not stated),-4.8,2352,9.5,7.0,9.7,5.7,-12.0
